Source: PubChem
PINK1 modulator: modulators of PINK1 expression. Potency, µM (doses to about 76.6 µM), inactives show top-dose activation (PINK1 increase), most hits filed as activators. PINK1 immunofluorescence, high-content cytometry, 24 h. 0.2% of 410,000 active; active = well fitted activation curve with a large enough effect; inconclusive = small, poorly fitted or top-dose-only effect; inactive = flat fitted curve, though single readings scatter; cell line not stated here;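 further: potency means the concentration at half of the fitted maximal effect; % of control where 0% means no effect; nearly all actives have a fitted effect of over 65% in size; a mitochondrial uncoupler was the plate control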
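A stable cell line was treated with compounds at 5 concentrations for 24 hours, with CCCP as control. PINK1 levels and mitochondrial localization were measured by immunofluorescence with mitochondrial, cell and nuclear markers after fixation, read by laser-scanning cytometry.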
CtBP-E1A inh: blocks the CtBP interaction with E1A; activity change, % (no concentration beside the values); 0.49% of 340,000 active; AlphaScreen GST-E1A/His-CtBP binding, 1536-well; hits give low values; control for the full effect not named in the record; in the data active means activity change below about -65%; inconclusive means about -30% to -65%; inactive means above about -30%; further: on the % scale 0 is the no-effect control and ±100 the full control effect; compound concentration not given in the record
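In 5 uL wells, 23 nL compound meets equimolar GST-E1A and His-CtBP (5X stock 125 nM each) for 2 h, 37 °C. Beads (5X, 50 ug/mL) then 1 h, 37 °C, dark.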
TRPML1 ag: human mucolipin-1 channel agonism | Q9GZU1 | 0.12% of 410,000 active | activation, % (concentration not given with the values) | TRPML1-expressing cells, Ca2+ dye fluorescence, FDSS; host cell line not named in the record; reference of the full effect not given here; in the data active = activation above about 50%; inconclusive = about 30% to 50%; inactive = below about 30%; further: 0% is about no effect; the text of the record puts the active cut at 80%
Target sequence (Q9GZU1 whole entry, looked up): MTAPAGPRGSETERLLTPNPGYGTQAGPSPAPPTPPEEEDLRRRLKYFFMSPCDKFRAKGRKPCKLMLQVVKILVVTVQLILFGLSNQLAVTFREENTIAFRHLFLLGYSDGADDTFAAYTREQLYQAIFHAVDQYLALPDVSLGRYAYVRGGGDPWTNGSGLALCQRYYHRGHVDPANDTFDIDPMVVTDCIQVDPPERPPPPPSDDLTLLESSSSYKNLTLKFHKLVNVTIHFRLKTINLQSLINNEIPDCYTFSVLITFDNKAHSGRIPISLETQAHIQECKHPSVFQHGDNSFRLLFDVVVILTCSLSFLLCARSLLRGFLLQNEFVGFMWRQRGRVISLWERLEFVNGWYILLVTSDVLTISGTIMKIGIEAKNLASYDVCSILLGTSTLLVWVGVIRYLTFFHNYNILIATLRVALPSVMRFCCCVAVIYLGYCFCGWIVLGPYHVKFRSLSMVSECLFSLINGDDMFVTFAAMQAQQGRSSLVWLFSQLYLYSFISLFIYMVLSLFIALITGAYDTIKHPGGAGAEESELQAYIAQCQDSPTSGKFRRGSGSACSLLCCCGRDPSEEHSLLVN
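Kinetic FDSS Ca2+ read in Tet-induced TRPML1-DL cells (ABD Ca8 dye plus quencher, 45-90 min RT loading): baseline, then compound, then 110 s agonist window; EC80 agonist 54-4 at 4uM final added afterwards for a 110 s antagonist window.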
TRPML1 blocker: human mucolipin-1 channel inhibition. TRPML1-inducible cells, Ca2+ dye fluorescence, FDSS; hits give low values; inhibition of EC80 agonist-evoked calcium signal. activity change, negative = inhibition, % (no concentration beside the values). 0.02% of 390,000 active; in the data active means activity change below about -50%; inconclusive means about -30% to -50%; inactive means above about -30%;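 further: stimulus is agonist 54-4 at its EC80 concentration; on the % scale 0 is the no-effect control and ±100 the full control effect; compound concentration not given in the record; the text of the record puts the active cut at -80%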
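TRPML1-DL cells, Tet-induced overnight (~16 h, 37 °C) at 1,500 cells/well, were loaded with Ca8 no-wash dye plus quencher for 45-90 min at room temperature. Compounds were pinned during FDSS kinetic reading; agonist 54-4 at EC80 (4 uM final) then added.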
Six1-Eya2 inh: Six1/Eya2 interaction inhibition | AlphaScreen GST-Six1/His-Eya2 binding, biochemical; hits give low values; control for the full effect not named in the record | activity change, % (concentration not given with the values) | 0.56% of 360,000 active | AID 651725; in the data active = activity change below about -65%; inconclusive = about -30% to -65%; inactive = above about -30%; further: on the % scale 0 is the no-effect control and ±100 the full control effect
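AlphaScreen luminescence read after one hour at 37 °C in darkness. Pin-transferred compounds met GST-Six1 and His-Eya2 protein (5X stock 250 nM/500 nM) plus glutathione donor and Ni-chelate acceptor beads (5X, 50 ug/mL).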
D2 ag: activates the human D2 dopamine receptor; P14416; DiscoveRx PathHunter D2 beta-arrestin, luminescence, 90 min; 100% = 57 uM dopamine signal; activation, % (test concentration not listed); 0.084% of 360,000 active; AID 624465; in the data active = activation above about 40%; inconclusive = about 15% to 40%; inactive = below about 15%; further: compound concentration not given in the record; the text of the record calls up to 30% inactive
Target sequence (P14416 whole entry, looked up): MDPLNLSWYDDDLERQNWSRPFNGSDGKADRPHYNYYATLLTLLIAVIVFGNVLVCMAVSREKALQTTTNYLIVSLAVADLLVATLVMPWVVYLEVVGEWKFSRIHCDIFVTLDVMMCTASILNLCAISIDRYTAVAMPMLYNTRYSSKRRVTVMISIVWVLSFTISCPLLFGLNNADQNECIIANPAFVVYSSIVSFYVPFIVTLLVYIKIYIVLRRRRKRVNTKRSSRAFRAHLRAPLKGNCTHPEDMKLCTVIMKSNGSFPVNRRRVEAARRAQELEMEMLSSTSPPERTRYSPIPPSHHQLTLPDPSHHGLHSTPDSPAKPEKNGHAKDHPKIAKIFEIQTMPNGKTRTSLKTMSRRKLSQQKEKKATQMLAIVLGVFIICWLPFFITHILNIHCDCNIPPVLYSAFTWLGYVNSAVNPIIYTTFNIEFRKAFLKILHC
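Agonist mode: compounds alone added to overnight-plated D2 PathHunter cells for 90 min at 37 C, with 57 uM final dopamine (EC100) defining full response. Beta-arrestin recruitment detected by chemiluminescent reagent, read after 1 h at ambient temperature.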
* hit, by the source's call; u = inconclusive; x = not tested or not shown; & = joins results of further samples; [ ] = dose if it differs, or a comment.

SMILES | PINK1 modulator | CtBP-E1A inh | TRPML1 ag | TRPML1 blocker | Six1-Eya2 inh | D2 ag
CCOC(=O)c1sc(NC(=O)C2CSC3(C)CCC(=O)N23)nc1C (stereo unspecified) | -0.9% | x | -1.0 | -7 | -1 | 0.4
CN(C)C(=O)CSc1cnc2ccccc2n1 | -1.9% | -18 | -0.3 | 10 | -1 | -5.5
O=C(/C=C/c1ccc(F)cc1)Nc1ccc(S(=O)(=O)Nc2ncccn2)cc1 | -0.5% | x | 1.3 | 17 | -6 | 2.4
COc1ccc(C(=O)/C=C/c2ccc(O)cc2)cc1 | -0.7% | 4 | 1.2 | 3 | 4 | -6.4
Cc1cc(C)c(S(=O)(=O)N(C)CC(=O)N2CCCCC2)c(C)c1 | 0.1% | -1 | -0.4 | 1 | 4 | -2.1
Cc1cc(C)cc(NC(=O)c2ccc3oc(=O)c(S(=O)(=O)c4ccc(F)cc4)cc3c2)c1 | 2.1% | x | 0.1 | -7 | x | x
CC(C)(O)C#Cc1ccc(C(=O)N2CCCC(CNS(=O)(=O)c3cccs3)C2)o1 (stereo unspecified) | -0.4% | 0 | 0.5 | -6 | -25 | -5.0
CCOC(=O)c1c(C)[nH]c(-c2csc(N)n2)c1C | 1.0% | -16 | -0.1 | -1 | 3 | 4.2
COc1ccc(CC(=O)NC2CCSc3ccccc32)c(OC)c1 (stereo unspecified) | 5.8% | 0 | 0.0 | 7 | -8 | -2.3
COc1cc(NC(=O)c2cc3c(=O)n(Cc4ccco4)ccc3nc2C)cc(OC)c1OC | 4.6% | x | 0.2 | -25 | x | x
O=C(c1ccco1)N1CCN(C(=O)c2cc(-c3ccccc3)nc3ccccc23)CC1 | 0.6% | -14 | 1.6 | -8 | -9 | -2.3
Cn1c(-c2ccccc2)cc2ccccc21 | 6.3% | 0 | 0.7 | 32 | 18 | 0.3
COc1ccccc1NC(=O)CN1C(=O)C(C)SC(C)C1=O (stereo unspecified) | 1.9% | -4 | 0.4 | -8 | -3 | 3.6
COc1ccccc1/C=N/NC(=O)C(=O)NCc1cccnc1 | 0.7% | -8 | 0.5 | -14 | 2 | -3.4
COc1cc(C)c(/C=C(\C#N)C(=O)Nc2ccc(C)cc2)cc1C(C)C | 12% | 0 | 1.1 | -12 | -4 | -4.8
O=C(CSc1nnnn1-c1cccc2c1CCCC2)N1CCCCC1 | -1.7% | -2 | -0.6 | 12 | 0 | -2.4
COCC1CCCCN1C(=O)CCCn1nnnc1CN1CCC(C)CC1 (stereo unspecified) | 2.0% | 5 | 0.0 | 1 | -2 | -4.2
COc1ccc(-c2csc(N3CCSCC3)n2)cc1 | 3.3% | -7 | -0.9 | -3 | -10 | 4.0
CC(C)=CC(=O)Nc1c(C)cc(C)cc1Cl | 5.8% | 6 | -0.8 | -5 | -1 | 4.6
O=C(CCC(=O)NNc1nc2ccccc2c2nc(-c3ccccc3)nn12)NCCCN1CCOCC1 | -3.0% | -8 | -0.5 | 8 | -2 | 1.4
COc1ccccc1NC(=S)Nc1ccccn1 | 6.4% | 1 | 0.8 | -4 | -1 | 1.3
CSc1ccc(C(=O)Nc2ccc(-c3nc4ccccc4s3)c(O)c2)cc1 | -0.8% | x | -0.2 | -2 | x | x
C=CCNc1ncnc2c1[nH]c1ccccc12 | -0.7% | -1 | -0.4 | 16 | -19 | -1.1
COc1ccccc1N(CN1CCCC1=O)C(=O)c1c(F)cccc1F | u | 3 | -0.1 | 7 | 3 | -0.1
CC(=O)Nc1ccc(S(=O)(=O)N(CCO)Cc2ccccc2)cc1 | -3.1% | 2 | 0.3 | -7 | 8 | 1.9

Rewritten as labelled records: part of the list above
COc1ccc(-c2csc(N3CCSCC3)n2)cc1
  PINK1 modulator = 3.3%	CtBP-E1A inh = -7	TRPML1 ag = -0.9	TRPML1 blocker = -3	Six1-Eya2 inh = -10	D2 ag = 4.0

COc1ccccc1NC(=S)Nc1ccccn1
  PINK1 modulator = 6.4%	CtBP-E1A inh = 1	TRPML1 ag = 0.8	TRPML1 blocker = -4	Six1-Eya2 inh = -1	D2 ag = 1.3

Cn1c(-c2ccccc2)cc2ccccc21
  PINK1 modulator = 6.3%	CtBP-E1A inh = 0	TRPML1 ag = 0.7	TRPML1 blocker = 32	Six1-Eya2 inh = 18	D2 ag = 0.3

COc1ccc(CC(=O)NC2CCSc3ccccc32)c(OC)c1 (stereo unspecified)
  PINK1 modulator = 5.8%	CtBP-E1A inh = 0	TRPML1 ag = 0.0	TRPML1 blocker = 7	Six1-Eya2 inh = -8	D2 ag = -2.3

(next part)
SMILES | PINK1 modulator | CtBP-E1A inh | TRPML1 ag | TRPML1 blocker | Six1-Eya2 inh | D2 ag
CC(=O)N1C(=O)N(C)C2C1N(C(C)=O)C(=O)N2C (stereo unspecified) | -0.6% | -2 | -0.4 | 1 | 14 | 0.6
O=C(Cn1cnc2c(nnn2Cc2ccccc2)c1=O)N1CCN(c2ccccc2)CC1 | 5.3% | -6 | 0.5 | -3 | 2 | -4.2
Cc1ccccc1NC(=O)CSc1nc2scc(C)c2c(=O)[nH]1 | 13% | 5 | 1.1 | -3 | 5 | 0.8
COc1cc(CNCCSc2nnnn2C)ccc1OCc1ccc(F)cc1 | 0.3% | x | -0.1 | -12 | x | x
c1ccc(C2CC3CC(c4ccccc4)N2O3)cc1 (stereo unspecified) | -0.3% | -21 | 0.0 | 6 | 21 | -1.9
CCC(CC)C1=NN2C(=N)/C(=C/c3ccc(OC(=O)c4ccco4)cc3)C(=O)N=C2S1 | -1.3% | 7 | 0.6 | -7 | -17 | 0.1
COc1ccccc1NC(=O)C(=O)c1cc(C)n(-c2cc(C)cc(C)c2)c1C | 1.5% | x | -0.5 | 6 | x | x
O=C(NC1CCCCCC1)c1ccc(CS(=O)Cc2ccccc2Cl)o1 (stereo unspecified) | 0.5% | 7 | -0.9 | 35 | 4 | -5.4
CCCCC/C(=N\NC(=O)CCC(=O)NCc1ccccc1)c1ccccc1 | 2.3% | 1 | 1.0 | 13 | -6 | -1.5
CC(=O)Nc1ccc(S(=O)(=O)N(C)c2nc3ccccc3nc2Cl)cc1 | 0.5% | -18 | -1.1 | -9 | -21 | -4.1
Cc1ccn2c(C(=O)NN=C3CCN(C)CC3)c(C)nc2c1 | 0.0% | 1 | 1.1 | 17 | 21 | 15
Cc1ccc2c(c1)c1c(c(=O)n(Cc3ccccc3)c(=O)n1CC(=O)NCc1ccccc1Cl)n2C | 3.1% | x | -0.3 | 15 | x | x
CCn1c(SCC(=O)Nc2ccc3c(c2)OCCO3)nnc1-c1cccs1 | -0.2%[38.3 µM] | -3 | 0.6 | -1 | 1 | 0.8
COC(C[C@@H]1O[C@@H]1C(=O)COCc1ccccc1)OC | -0.4% | -15 | -0.2 | -17 | -5 | -2.2
CC1C(=O)N(Cc2cn(Cc3ccco3)nn2)CCS(=O)(=O)N1Cc1ccc(-c2cccc(N(C)C)c2)cc1 (stereo unspecified) | 1.6% | -11 | -0.4 | -2 | -30 | -2.0
O=C(/C=C/c1ccccc1)C1=C(O)C(=O)N(CCO)C1c1ccc2c(c1)OCO2 (stereo unspecified) | -0.3% | -1 | -0.4 | 29 | 6 | -6.0
CCN(c1ccccc1)S(=O)(=O)c1cc(-c2onc(C)c2C)ccc1OC | 6.1% | x | 1.9 | 27 | x | x
CC(C)(C)NC(=O)C(Cc1ccccc1)N1C(=O)c2ccccc2C1=O (stereo unspecified) | 2.7% | 5 | 0.0 | 42 | 7 | -2.6
CC(=O)N1c2c(cc(Br)cc2S(=O)(=O)NCc2ccccc2)CC1C (stereo unspecified) | 2.9% | 7 | -0.7 | 7 | -7 | 3.6
O=[N+]([O-])c1ccc(NN=Cc2cccc(O)c2)nc1 | -1.0% | -7 | 0.6 | -4 | -4 | 3.4
COc1ccc(-c2ccc3c(c2)S(=O)(=O)c2cccc(C(=O)NC4CCCC4)c2C3=O)cc1OC | 9.6% | x | -0.3 | 10 | 1 | 0.4
CCn1c(C)cc(/C=C2\NC(=O)N(Cc3ccccc3)C2=O)c1C | -0.8% | -14 | -1.3 | -1 | -9 | -1.9
O=C(O)C1=C[C@@H](c2ccc(F)cc2)C[C@@H](OCCCCO)O1 | 0.7% | -5 | 0.2 | 26 | -4 | -3.4
Cc1cccc(OCCNc2ncccc2[N+](=O)[O-])c1 | 1.5% | 0 | 3.0 | -3 | -14 | 1.0
C=CCc1c(C)nc2nc(SCC(=O)Nc3cccc(Cl)c3)nn2c1C | 0.1% | x | 0.5 | -2 | x | x

The results go on:
SMILES | PINK1 modulator | CtBP-E1A inh | TRPML1 ag | TRPML1 blocker | Six1-Eya2 inh | D2 ag
COc1ccccc1NC(=O)Cn1nc(-c2ccc(Cl)cc2)c2ccccc2c1=O | -1.8% | -3 | 2.9 | 9 | -5 | -3.4
COc1cc(C(=O)Oc2ccccc2OC(=O)c2cc(OC)c(OC)c(OC)c2)cc(OC)c1OC | 17% | 8 | 3.1 | 40 | -5 | 2.0
CCOC(=O)C(=NC(C)CC)NNc1ccc(Br)cc1 (stereo unspecified) | u | -2 | 0.2 | -8 | -5 | 12
Cc1cc(C)nc(N2CCCC(C(=O)NC(C)CCc3ccco3)C2)n1 (stereo unspecified) | 0.2%[38.3 µM] | -5 | 4.3 | 28 | -3 | -4.7
Cc1ccc(C)c(CC(=O)N2CCCC(c3cc(C(=O)NCc4ccccc4)no3)C2)c1 (stereo unspecified) | 2.1% | 1 | -0.8 | x | -2 | 3.8
Cc1nc(Nc2ccc(S(=O)(=O)N3CCCC3)cc2)c2nnn(Cc3ccccc3)c2n1 | 12% | -12 | -0.4 | 4 | -4 | -2.9
Cc1cccc(NC(=O)c2ccc(F)c(S(=O)(=O)N3CCC4(CC3)OCCO4)c2)c1 | 0.6%&-0.5% | -1 | -0.7&2.2 | 0&0 | -3 | -0.5
CCOc1ccccc1CN1CCN(C2CCOCC2)CC1CCO (stereo unspecified) | -1.0% | 6 | 0.0 | 11 | 0 | -1.2
CCN(CC)CCn1c(SCC(=O)Nc2ccc3c(c2)CCC3)nc2ccccc2c1=O | 1.5% | x | -0.4 | -9 | -1 | -3.2
Cc1nnc(NCCN2CCOCC2)[nH]c1=O | -1.6% | 0 | -0.1 | 14 | 1 | -2.2
CN(C)c1ccc(C(C#N)c2ccc(Cl)cc2)nn1 (stereo unspecified) | 2.4% | 5 | 0.2 | 8 | 5 | -1.0
Cn1c(=O)c2c(nc(CN3CCc4ccccc4C3)n2CCCO)n(C)c1=O | 7.5% | 4 | 0.1 | 0 | -5 | -0.5
C(=N\N1CCOCC1)/c1nc(-c2ccccc2)n2ccccc12 | -0.4% | -14 | 0.3 | 3 | -12 | 2.2
Nc1nc2n(n1)C(=O)CC(c1ccccc1[N+](=O)[O-])N2 (stereo unspecified) | 1.2% | x | 2.6 | 7 | -4 | -2.2
O=C(CSc1ccc2nnc(-c3cccnc3)n2n1)NCC1CCCO1 (stereo unspecified) | 0.2% | -1 | -0.4 | 8 | -7 | 0.6
